Assay outcomes deposited in PubChem by ICCB-Longwood Screening Facility, Harvard Medical School.
HCMV UL50-53 inh – cytomegalovirus nuclear egress complex inhibition | 190,000 compounds, 0.15% hits | inhibition, % (test concentration not listed) | HTRF UL50-UL53 interaction, normalized percent inhibition;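 active means both replicates at 50% or more, plus weaker picks with an unusually low signal ratio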;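 further: stock transfer was 100 nL into about 20 µL; 0% = negative control wells and 100% = wells with untagged competitor protein; inactives centre near -12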
Sa growth inh – inhibitors of Staphylococcus aureus growth at 42 °C; relative growth, % (no concentration beside the values); S. aureus RN4220 growth, OD600, 20 h; active compounds read low; AID 720641; 170,000 compounds, 0.53% hits;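 active means growth at 42 °C up to 50% and 20 or more points under that at 30 °C, or under 10% at both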;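 further: 300 nL library stock went into each well; scaled to the means of positive and negative controls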
GIV-Gai inh – GIV-Galpha-i interaction inhibition | P08753 | Galpha-i3/FITC-GIV peptide fluorescence polarization, 90 min; active compounds read low; scaled: aluminum fluoride 0%, vehicle 100% | percent of control (FP), % (concentration not given with the values) | 210,000 compounds, 0.42% hits | AID 1224905;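 active means replicate mean at 85% of control or lower, very high polarization wells dropped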;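 further: wells of about 15 µL received 100 nL stock; the first replicate is given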
Target sequence (P08753 whole entry, looked up): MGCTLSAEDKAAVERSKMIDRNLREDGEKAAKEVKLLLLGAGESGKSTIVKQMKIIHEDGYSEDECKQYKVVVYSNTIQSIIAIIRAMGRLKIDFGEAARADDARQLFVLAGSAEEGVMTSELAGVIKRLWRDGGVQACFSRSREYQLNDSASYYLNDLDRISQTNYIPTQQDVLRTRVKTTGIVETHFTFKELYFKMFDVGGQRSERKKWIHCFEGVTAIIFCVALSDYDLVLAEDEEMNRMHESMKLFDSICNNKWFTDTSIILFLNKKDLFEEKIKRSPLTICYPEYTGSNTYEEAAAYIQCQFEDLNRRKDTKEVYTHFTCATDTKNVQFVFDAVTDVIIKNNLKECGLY
Sa growth inh second temp – second read-out of Sa growth inh, no call of its own (marks repeat the call); relative growth, %; measured here: growth at 30 °C;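 optical density after 20 h as mean of two plates; 100% = untreated growth and lower means inhibition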
Numbers without * were called inactive; nt = no result given; & = joins results of further samples.

nr	compound	HCMV UL50-53 inh	Sa growth inh	Sa growth inh second temp	GIV-Gai inh
1	Cc1cccc(N(C)S(=O)(=O)c2c(C)nc3sccn3c2=O)c1	-20.7	98.7	80.5	96.2
2	C/C(=N\NC(=O)c1ccc(CN2CCOCC2)cc1)c1cccs1	-27.9	102.4	98.8	95.9
3	CC(=O)N1CCc2c(sc(NC(=O)CSc3ccccc3)c2-c2nc3ccccc3s2)C1	nt	85.2	96.3	99.3
4	CC(C)(C)c1cc(CC(=O)O)cc(C(C)(C)C)c1O	0.8	108.6	98.7	104.4
5	CCc1ccccc1NC(=O)c1ccc2c(c1)nnn2C1CCCC1	nt	96.3	97.7	107.2
6	CCOC(=O)/C=C/c1ccc(N)cc1	-49.2	91.1	84.1	nt
7	COc1ccc(C(=O)N(Cc2ccc3c(c2)OCO3)C2CCCC2)c(OC)c1	-14.0	94.8	71.2	nt
8	O=C(CN1CCN(C(=O)C2COc3ccccc3O2)CC1)Nc1ccccc1 (stereo not given)	-8.1	93.9	96.1	99.8
9	CC(C)n1cnc(S(=O)(=O)N2CCCC(C(=O)NCc3ccccc3Cl)C2)c1 (stereo not given)	nt	86.1	91.7	98.7
10	O=C(CCCC(=O)Nc1cccnc1)Nc1cccnc1	1.3	126.8	97.3	104.8
11	NC(=O)CSc1nc2ccccc2c(=O)n1Cc1ccccc1	1.2	99.2	92.9	nt
12	Cc1ccc(NC(=O)CCCn2c3ccccc3c(=O)c3cc(C)ccc32)c(Br)c1	-47.1	101.4	88.7	103.4
13	O=C(NCCOc1ccc2c(c1)OCO2)C1CCN(C(=O)NC2CCCCC2)CC1	-16.8	73.3	87.7	98.0
14	Cc1cccc(Nc2c(-c3ccsc3)nc3nc(C)cc(C)n23)c1	17.6	107.6	106.5	106.3
15	Fc1ccc(-n2ncc3c(N4CCc5ccccc54)ncnc32)cc1	1.8	95.2	95.0	105.3
16	Cn1c(C(C(=O)NCC2CCCO2)N(C(=O)Cn2nnc3ccccc32)c2ccc3c(c2)OCO3)nc2ccccc21 (stereo not given)	-39.4	68.7	83.9	98.9
17	Cc1ccc(-c2noc(CN(C(=O)Nc3ccccc3C)C(C)C)n2)cc1	-13.2	93.0	78.6	101.5
18	CC(=O)OCC1OC(n2c(Br)nc3c(N)ncnc32)C(OC(C)=O)C1OC(C)=O (stereo not given)	-12.9	86.4	87.1	nt
19	CCOC(=O)c1cc(S(=O)(=O)N(C)CC(=O)N2CCCC2)cn1C	-29.7	nt	nt	102.4
20	COc1cccc(N=c2scc(-c3ccco3)n2CC2CCCO2)c1 (stereo not given)	-9.7	96.1	94.3	nt
21	O=C(NCc1cccnc1)c1ccc2c(=O)nc3c(-c4ccccc4)n[nH]n3c2c1	-42.0	nt	nt	111.9
22	C=CCn1c(C(C)O)nc2ccccc21 (stereo not given)	-21.2	102.0	82.9	101.5
23	CN1C(=O)Cc2cc(S(=O)(=O)NCCc3ccccc3)ccc21	nt	82.7	91.0	104.4
24	COC(=O)CN1C(=O)CSc2ccc(S(=O)(=O)Nc3ccc(OC)cc3)cc21	-7.8	nt	nt	106.1
25	O=C(C1c2ccccc2Oc2ccccc21)N1CCC2(CC1)OCCO2	-4.7	122.3	101.5	105.4
26	COc1ccc(-c2ccc(CO)o2)cc1N	-44.1	87.9	85.0	103.5
27	O=C(c1c[nH]c2ccccc12)C(F)(F)F	-7.0	80.4	71.0	102.8
28	CCCCCN1N=C(C)CC1=O	-7.1	83.2	65.8	103.8
29	Cc1cccc(Cn2c(-c3cccc(Br)c3)nc3ccccc32)c1	nt	94.1	91.3	101.8
30	CN(Cc1ccccc1)C(=O)c1cccc(C(=O)N(C)Cc2ccccc2)c1	0.1	134.5	90.1	nt
31	CC(=O)c1cccc(Nc2c3c(nc4nc(-c5cccs5)nn24)CCCC3)c1	nt	92.3	84.7	101.5
32	CCOC(=O)c1c(N)c(C#N)n2c1CCC2	-10.8	92.9	88.5	103.7
33	C=CCN(c1ccccc1)S(=O)(=O)c1ccc2c(c1)SC(C)C(=O)N2 (stereo not given)	nt	115.0	87.0	106.2
34	Cc1ccccc1NC(=O)CCC(=O)OC1CCC(C(C)(C)C)CC1 (stereo not given)	-3.3	98.6	118.6	nt
35	COc1cc(OC)cc(C(=O)Nc2ccc(O)c(-c3nc4cc(C)c(C)cc4o3)c2)c1	2.0	117.0	85.2	98.7
36	Cc1ccc(Cc2nc(-c3ccc(Cl)cc3)cs2)cc1	4.3	74.6	89.0	98.3
37	Cc1cccc(N2CCN(C(=O)CCSCc3ccccc3F)CC2)c1C	nt	91.3	68.5	100.0
38	COc1ccc(C(=O)Nc2nc3n(n2)C(c2ccc(Cl)cc2)C=C(c2ccccc2)N3)cc1OC (stereo not given)	-65.4	90.1	81.7	40.5*
39	Cc1nc(C)c(C(=O)O)c(-c2ccc(Cl)cc2)c1C(=O)O	-11.6	107.9	99.9	106.7
40	CCSc1ccc(SC#N)s1	-30.5	-0.4*	-0.3*	94.3
41	Fc1ccccc1N1CCN(c2c3c(nc4ccc(Cl)cc24)CCC3)CC1	-15.3	75.5	86.4	110.4
42	CCOc1ccc2nc(SCc3nc4ccccc4[nH]3)sc2c1	-7.7	95.1	95.0	nt
43	COc1ccc(OCc2nc(-c3ccc4c(c3)[nH]c(=O)n4C3CCCC3)no2)cc1	-10.9	nt	nt	99.9
44	COc1ccc(-c2nc3nc(C)cc(N4CCN(c5cccc(C(F)(F)F)c5)CC4)n3n2)cc1	-31.8	106.3	90.6	104.5
45	S=c1[nH]ccn1CCc1ccccc1	-7.0	95.5	101.7	nt
46	CCCN(c1ccc(F)cc1)c1nc(-c2ccc(OC)cc2)no1	-3.6	77.4	90.3	99.2
47	CCn1c(=S)[nH]c2nc3c(cc2c1=O)COC(C)(C)C3	-12.8	100.3	95.3	105.0
48	Cc1ccc(Cl)cc1NC(=O)CSc1cc(C)c2cc(S(=O)(=O)N3CCCCC3)ccc2n1	-8.0	nt	nt	103.2
49	CCOC(=O)c1cc(-c2cc3ccccc3o2)nn1CCC#N	9.5	97.7	89.1	nt
50	Cc1cc2[nH]c(=O)c(=O)[nH]c2cc1S(=O)(=O)NC1CCCC1	nt	83.0	88.7	101.0

Next section
nr	compound	HCMV UL50-53 inh	Sa growth inh	Sa growth inh second temp	GIV-Gai inh
51	C=CCN1C(=O)C(C)(C)S/C1=N\S(=O)(=O)c1ccc(C)cc1	-10.2	95.8	83.4	nt
52	Clc1ccc(CNc2ncnc3[nH]ncc23)c(Cl)c1	-13.3	92.4	67.5	nt
53	CN(C)/C=C/C(=O)c1cccs1	-82.0	96.8	91.1	103.4
54	CC1CCc2c(sc3nc(CSc4nnc(-c5ccccc5)o4)[nH]c(=O)c23)C1 (stereo not given)	-10.6	77.2	91.1	nt
55	CN(C)S(=O)(=O)N1CCC(Oc2cccc(-n3cnnn3)c2)CC1	-19.4	92.6	86.8	101.8
56	Cc1csc(SCc2cc(=O)c(OC(=O)c3ccc(S(=O)(=O)N4CCOCC4)cc3)co2)n1	6.5	103.4	94.1	108.6
57	CN1CCN(C(=O)c2nc(-c3ccccc3)n(-c3ccc(Cl)cc3)n2)CC1	-20.9	nt	nt	93.3
58	O=c1ccc(Cl)nn1-c1ccccc1	-67.6	98.5	113.7	105.1
59	COC(=O)c1cc(S(=O)(=O)N(C)CC(=O)NC2CCCC2)cn1C	-4.6	nt	nt	102.5
60	O=C1CSCC(=O)N1Cc1cccc(C(F)(F)F)c1	-13.5	nt	nt	98.6
61	CN(CC(=O)NCc1cccs1)c1ccccc1	-27.5	81.2	90.4	nt
62	CCC(C)(C)NS(=O)(=O)c1cc2[nH]c(=O)c(=O)[nH]c2cc1C	nt	111.3	79.5	92.6
63	CCN1CCCn2c1nc1c2c(=O)[nH]c(=O)n1C	-15.3	nt	nt	94.7
64	COC(=O)c1ccc(COC(=O)c2cc(OC)cc(OC)c2)cc1	3.9	106.2	91.4	nt
65	O=C1CCCN1c1ccc(S(=O)(=O)Nc2ccc3oc4c(c3c2)CCCC4)cc1	5.9	115.2	101.0	105.8
66	Cc1ccc(/C=C/C(=O)NC(c2ccc3c(c2)OCCCO3)C(C)C)o1 (stereo not given)	-25.9	108.0	93.8	nt
67	C=CCn1c(=O)[nH]c2c1c(=O)n(C)c(=O)n2C	-36.9	81.0	90.1	103.4
68	CCN(CC(=O)NC1CCS(=O)(=O)C1)C(=O)/C=C/c1cccs1 (stereo not given)	-46.0	95.1	89.3	nt
69	COc1ccc(C(=O)O/N=C2\C(=O)N(C)c3ccccc32)cc1	-23.8	94.0	87.5	102.0
70	O=c1ccc(Oc2nc(N3CCCCC3)nc(N3CCCCC3)n2)n[nH]1	3.0	91.0	95.5	108.3
71	CCc1nn(CC(=O)Nc2ccc(C)c(F)c2)c(=O)c2cc3cc(C)ccc3n12	-10.8	83.7	94.6	110.4
72	CCOC(=O)N1CCC(NC(=O)c2cnn(-c3ccc(C)cc3C)c2C2CCN(C(=O)OC(C)(C)C)CC2)CC1	nt	111.8	102.1	114.5
73	N=C1CC(=O)N=C2SC(C3CC3)=NN12	5.8	106.2	99.2	103.8
74	C=CCn1c(SCC(=O)N2CCOCC2)nc2sc(-c3ccccc3)cc2c1=O	-11.5	nt	nt	104.7
75	O=C(COc1c(-c2ccco2)oc2ccccc2c1=O)NCCc1ccccc1	-6.6	99.8	77.0	94.5
76	NS(=O)(=O)c1ccc(N=Cc2c(O)ccc3ccccc23)cc1	96.6*	71.2	61.7	nt
77	N#CC1=C(SCc2ccccc2)SC(CO)NC1=O (stereo not given)	-15.3	50.1	32.6	106.5
78	CC1CC(C)CN(CCCNC(=O)CCC(=O)N2CCSc3ccccc32)C1 (stereo not given)	-8.7	nt	nt	107.5
79	CN(C)c1c(F)cc(C(=O)NC(=O)NC2=NCCS2)cc1F	-24.3	102.5	91.8	104.0
80	O=C(c1cc(-c2cccnc2)n[nH]1)N1CCCC(C(=O)N2CCc3ccccc3C2)C1 (stereo not given)	-26.0	nt	nt	102.6
81	O=C(CCCN1C(=O)CSc2ncccc21)NCCc1ccccc1	-3.9	95.4	88.0	101.8
82	O=C1S/C(=C/c2ccc(F)cc2)C(=O)N1CNc1ccc(Br)cc1	-6.3	nt	nt	102.8
83	COc1ccc(Nc2nc3ccccc3nc2NS(=O)(=O)c2ccc(C)cc2)c(OC)c1	-20.8	106.8	79.7	38.8*
84	O=C(NCc1ccc(Cl)cc1)c1ccc2c(Cl)c3c(nc2c1)CCCC3	-43.1	113.3	91.2	93.4
85	Nc1nc(SCc2ccc(Cl)c(Cl)c2)n[nH]1	3.7	nt	nt	101.3
86	COc1ccc(S(=O)(=O)c2c(C)cc(C)n(CC(=O)Nc3cc(OC)cc(OC)c3)c2=O)cc1	0.2	nt	nt	100.7
87	N#Cc1cc([N+](=O)[O-])c2sc(C(N)=O)[n+]([O-])c2c1	-61.0&-89.7	nt	nt	98.0
88	Cc1ccc(S(=O)(=O)NCc2cccnc2)cc1	-12.5	100.8	85.4	107.7
89	CC1=NN(c2ccccc2)C(=O)C1C(=O)O (stereo not given)	-6.4	112.5	87.0	107.5
90	CCCN1CCN(CCCNC(=O)Cn2nc(C)n3c(cc4cc(F)ccc43)c2=O)CC1	-42.3	125.8	90.7	96.7
91	Cc1ccccc1-c1noc(CSc2n[nH]c(=O)c3cc(-c4ccc(F)cc4)nn23)n1	-19.9	nt	nt	109.4
92	COc1ccc(C)cc1S(=O)(=O)NCC(c1cccs1)S(=O)(=O)c1ccc(C)cc1 (stereo not given)	nt	135.6	84.5	94.4
93	Cc1ccc(OCC(=O)NS(=O)(=O)c2ccccc2)cc1	-6.7	99.5	90.0	105.1
94	Nc1ccc(Sc2ccc(N3C(=O)c4ccc(N)cc4C3=O)cc2)cc1	-30.7&-25.6	106.1	71.2	104.6
95	O=C(C1c2ccccc2C(=O)N2CCc3ccccc3C12)N1CCC(Cc2ccccc2)CC1 (stereo not given)	5.9	nt	nt	104.3
96	Cc1cccc(N2C(=O)CSC23C(=O)N(C)c2ccccc23)c1 (stereo not given)	nt	88.8	90.4	99.4
97	Cc1ccc2nc3nc(NCc4cccnc4)c(C(N)=O)cc3c(=O)n2c1	-71.2	108.2	84.6	106.3
98	CCOc1ccccc1CNC(=O)CSc1n[nH]c(-c2ccccc2Cl)n1	nt	116.0	86.7	109.0
99	CC(C)OC(=O)CSc1nnc(CNc2ccc(F)cc2)n1C1CCCCC1	-8.3	128.7	84.0	104.6
100	Fc1cccc(NCc2ccc3c(c2)OCO3)c1	nt	115.2	95.5	105.4
